Screens as filed in PubChem.
HSV replic up – enhancers of HSV replication in host cells, fold increase, host cell viability. HSV replication augmentation in cells. maximum fold increase. 220,000 tested, 0.005% active;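 active = peak rise of 1.5-fold or more in the series; tested in PC3 cells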;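 note: first round at 10 µM; read as green reporter fluorescence; hits show the peak of a series up to 25 µM; 1 = signal of infected wells without compound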
Insulin prom inh – inhibitors of insulin promoter-driven GFP, primary screen, imaging, TRM-6 cells (human fetal islet line), eGFP reporter, cell count; 130,000 tested, 0.9% active; AID 1273, 2008; reporter expression induced with tamoxifen; inhibition, % at 2 µM;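 active = inhibition above the mean plus 3 SD, with well images judged a real hit on visual review, cut at about 60% in these data, passing the limit was not always enough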
RGS16-Gao HTS – modulators of RGS16 binding to Galphao, primary screen, biochemical, human proteins, multiplexed bead flow cytometry. binding response (% of control), % at 10 µM. bead-based flow cytometry RGS16-Galphao binding, fluorescence; actives lie on both sides. 220,000 tested, 0.38% active. Regulator of G-protein signaling 16 (Homo sapiens) + Guanine nucleotide-binding protein …;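 active = below 25% or above 175%, edge rows of some plates excepted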;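 note: Galphao activated by GDP with aluminum fluoride before binding; 100% = wells without compound and 0% = beads without RGS; some results beyond the cut were filed as inactive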
Target sequence (O15492 whole entry, looked up): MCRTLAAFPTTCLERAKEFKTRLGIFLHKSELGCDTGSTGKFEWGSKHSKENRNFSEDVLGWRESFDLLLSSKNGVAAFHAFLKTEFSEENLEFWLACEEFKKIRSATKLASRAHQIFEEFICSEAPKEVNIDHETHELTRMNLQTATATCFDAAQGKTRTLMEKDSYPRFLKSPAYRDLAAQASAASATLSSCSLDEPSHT
Target sequence (P09471 whole entry, looked up): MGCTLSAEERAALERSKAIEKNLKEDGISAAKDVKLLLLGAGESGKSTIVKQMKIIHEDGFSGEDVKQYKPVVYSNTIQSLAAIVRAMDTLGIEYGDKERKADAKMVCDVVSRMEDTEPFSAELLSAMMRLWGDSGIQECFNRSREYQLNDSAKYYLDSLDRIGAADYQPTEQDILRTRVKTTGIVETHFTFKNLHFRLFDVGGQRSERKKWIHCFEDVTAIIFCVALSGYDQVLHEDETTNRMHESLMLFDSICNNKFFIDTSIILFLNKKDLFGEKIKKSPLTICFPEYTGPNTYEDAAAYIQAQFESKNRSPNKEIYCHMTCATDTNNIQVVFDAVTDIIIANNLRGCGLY
PKD1 kinase inh – inhibitors of human PKD1 kinase, biochemical, fluorescence polarization. Serine/threonine-protein kinase D1 (Homo sapiens), Q15139. PKD1 kinase fluorescence polarization assay. inhibition, %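 (about 10 µM by stock and volumes)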. 200,000 tested, 0.056% active. AID 797, 2007;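 active = inhibition of 50% or more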;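 note: controls were vehicle for no effect and a reference inhibitor for full effect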
GALR2 ag – GALR2 receptor agonists, primary screen, cell-based; GALR2-expressing cells, agonist activation read-out; Galanin receptor type 2 (Homo sapiens), O43603; activation, %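 (tested at 5 µM)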; 140,000 tested, 0.48% active;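 active = above mean plus 3 SD of all compounds, about 5% in these data, not always enough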;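 note: 0% = vehicle buffer wells and 100% = reference agonist at full effect; tested in CHO reporter cells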
Target sequence (O43603 whole entry, looked up): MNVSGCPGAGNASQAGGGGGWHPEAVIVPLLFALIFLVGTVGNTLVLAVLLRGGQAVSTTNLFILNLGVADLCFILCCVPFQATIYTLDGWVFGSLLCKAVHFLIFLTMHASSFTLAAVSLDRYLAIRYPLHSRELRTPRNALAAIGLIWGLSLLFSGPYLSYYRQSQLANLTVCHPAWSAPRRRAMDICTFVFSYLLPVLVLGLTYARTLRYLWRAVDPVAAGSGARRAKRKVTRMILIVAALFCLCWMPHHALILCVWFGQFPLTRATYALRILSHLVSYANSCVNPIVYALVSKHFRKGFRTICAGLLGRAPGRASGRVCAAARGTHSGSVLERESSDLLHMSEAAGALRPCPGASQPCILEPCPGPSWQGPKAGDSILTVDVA
Insulin prom inh cell count – recorded beside Insulin prom inh, whose call it bears; normalized cell count, %; measured here: cell count, toxicity; reference of the scale not given here;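 cells exposed to compound for 48 h; stained nuclei by imaging scaled within each plate; lower means fewer cells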
HSV replic up primary fold – further read-out of HSV replic up, marked with its call; fold increase; compound at 10 µM; measured here: primary screen fold increase 10 uM; tested in PC3 cells;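 GFP signal in the first replicate; 1 = infected wells without compound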
* = called active by the depositor; i = inactive; · = no result given.

SMILES	HSV replic up	HSV replic up primary fold	Insulin prom inh	Insulin prom inh cell count	RGS16-Gao HTS	PKD1 kinase inh	GALR2 ag
CCCCNc1c([N+](=O)[O-])ncn1C	i	0.97	·	·	97.5	·	·
COc1ccc(Br)cc1CSC(=N)N	i	1.01	22.2	111.4	100.1	2.6	·
O=C(O)c1cccc(N/N=C/c2cc(Br)cc(Br)c2O)c1	i	0.89	-30.8	83.6	105.3	-4.2	-0.9
COc1ccc(C2C=C(c3ccc(Br)cc3)Nc3nc(NS(C)(=O)=O)nn32)cc1 (stereo not drawn)	·	·	20.8	123.7	98.0	-24.6	-3.2
O=C(NC12CC3CC(CC(C3)C1)C2)N1CCCC(CO)C1 (stereo not drawn)	i	1.09	-5.6	98.4	103.5	-2.5	-2.8
CSc1nc2sc3c(c2c(=O)[nH]1)CCC3	i	1.04	0.0	116.2	108.6	-3.4	-0.8
N#Cc1c(-c2ccco2)cc(-c2cccnc2)nc1N	i	1	57.1	107.2	96.7	27.3	0.7
CS(=O)(=O)N1CCN(C(=O)c2ccc(F)cc2)CC1	i	1.1	27.3	106.2	107.1	-6.5	-2.0
O=S(=O)(NCCOc1ccccc1)c1ccc2ccccc2c1	i	0.64	18.9	101.3	-1.5*	0.3	-2.6
CC(C)(C)NC(=O)N1CCN(c2ncccc2C(F)(F)F)CC1	i	0.92	·	·	95.1	·	·
Cc1ccc(NC(=O)c2cc(NC(=O)c3ccco3)ccc2N2CCOCC2)cc1	i	0.69	-5.3	71.7	99.6	-1.6	-1.9
O=C(NCCc1ccccc1)c1oc2ccccc2c1COc1ccccc1	i	0.99	-80.0	72.8	107.7	-4.5	-1.4
CC(=O)c1ccc(-n2nnnc2SCC(=O)Nc2cccc(NC(=O)c3ccco3)c2)cc1	i	0.84	-8.3	129.7	97.7	-1.6	-2.4
CC(=O)NNC(=O)c1[nH]c2ccc(Cl)cc2c1-c1ccccc1	i	0.89	·	·	100.2	·	·
O=C(CN1C(=O)/C(=C2\SC(=S)N(C3CCS(=O)(=O)C3)C2=O)c2ccccc21)Nc1ccccc1 (stereo not drawn)	i	0.93	·	·	94.0	-13.6	-0.2
CC(C)[C@H](NC(=O)CCCn1nnc2ccccc2c1=O)C(=O)O	i	1.03	·	·	98.7	·	·
Cc1ccc2oc(=O)c3cc(C(=O)Nc4cc(-c5cccc(F)c5)no4)sc3c2c1	·	·	-5.0	149.4	89.0	1.3	-0.9
CCOC(=O)N1CCN(C(=O)CSc2ncnc3ccccc23)CC1	i	1.03	·	·	110.3	0.4	-2.4
O=C1Nc2c(ccc(Cl)c2Cl)C(=O)C1(F)c1ccccc1 (stereo not drawn)	i	0.96	·	·	104.4	·	·
Cc1cccc(OCc2nnc(SCC(=O)Nc3ccc(C)c(Cl)c3)o2)c1	·	·	·	·	101.1	-1.2	-0.5
O=C1CCC(C(=O)Nc2ccccc2N2CCOCC2)=NN1	i	0.98	·	·	100.9	·	·
COc1ccc(-c2ccc(C)cc2)cc1[C@H]1[C@H]2C=CC[C@@H](C)[C@@H]2C(=O)N1Cc1ccccc1	i	0.9	·	·	104.3	·	·
O=C(Nc1ccc(Cl)c(C(F)(F)F)c1)NC1CC2CCCC(C1)N2Cc1ccccc1 (stereo not drawn)	i	0.55	-6.7	126.8	104.7	-0.7	·
CCOC(=O)/C(N=Nc1ccc2c(c1)OCO2)=C(\C)O	i	0.98	18.2	207.9	111.2	-1.8	·
Cc1cc(C(=O)NNc2c(Cl)cccc2Cl)no1	i	1.04	·	·	104.9	·	·

More compounds.
SMILES	HSV replic up	HSV replic up primary fold	Insulin prom inh	Insulin prom inh cell count	RGS16-Gao HTS	PKD1 kinase inh	GALR2 ag
N#CC1=C(N)Oc2[nH]c(=S)[nH]c(=O)c2C12C(=O)Nc1ccccc12 (stereo not drawn)	i	0.96	·	·	101.6	3.0	·
COc1cc(/C=N/NC(=S)NCCN2CCOCC2)cc(OC)c1OC	i	1.01	40.7	152.5	99.0	2.1	-0.6
Clc1cccc(-c2ccc(CNCCCN3CCOCC3)o2)c1	i	0.79	·	·	94.1	-6.8	·
Cc1ccc(NC(=O)CC(=O)Nc2ccc(C)cc2)cc1	i	0.93	-23.1	158.8	105.9	-5.6	·
Cc1cc(=O)oc(C)c1C(=O)NCc1c(F)cc(F)cc1F	i	1.03	-136.4	91.5	102.3	-1.4	-1.2
COC(=O)c1ccc(NC(=O)COC(=O)C2CC(=O)N(Cc3ccccc3)C2)cc1 (stereo not drawn)	i	1	·	·	99.4	-6.7	·
Cn1c(CN2CCN(CCO)CC2)c(C#N)c2ccccc21	i	1.07	·	·	100.6	·	·
Cc1nn(C/C(C#N)=N\O)c(C)[n+]1N	i	1.06	9.1	90.4	99.5	0.6	-0.7
O=C(N/C(=C\c1cccnc1)C(=O)N1CCOCC1)c1cccc(Br)c1	i	0.74	16.7	90.3	97.0	-4.1	-2.6
Cc1c(NC(=O)CSc2ccccc2Cl)c(=O)n(-c2ccccc2)n1C	i	1.02	-52.4	99.1	110.1	0.5	·
COc1ccc(C(NC(=O)C(C)C)c2c(O)ccc3ccccc23)cc1OC (stereo not drawn)	i	1.03	·	·	104.9	-2.0	-0.2
CCCCOc1ccc(CSC2=NCCN2)cc1[N+](=O)[O-]	i	0.65	5.7	115.7	100.8	-11.9	0.4
CCCc1nc2oc3c(NCCCN(C)C)ncnc3c2c2c1CCCC2	i	0.56	·	·	102.2	·	·
O=C(CSc1nnc(Cc2ccccc2)n1Cc1ccco1)NC12CC3CC(CC(C3)C1)C2	i	0.95	13.6	190.3	101.1	0.1	-1.0
CCOc1ccccc1C1C(C(=O)OC)=CN(C)C=C1C(=O)OC	i	1.08	·	·	88.5	-5.4	10.7*
CCOc1ccc(-c2nnn(CC(=O)c3ccc4c(c3)OCCO4)n2)cc1OCC	i	1.02	·	·	104.8	4.1	-2.5
Cn1c(=O)oc2cc(S(=O)(=O)NCC3CCCO3)ccc21 (stereo not drawn)	i	1.07	-344.4	58.1	·	1.4	0.8
CC(CNC(=O)CC(C)(C)C)NC(=O)CC(C)(C)C (stereo not drawn)	i	0.89	-10.0	116.5	109.3	3.3	-2.4
Cc1ccc(C)c(S(=O)(=O)N(C(=O)c2ccncc2)c2ccc(OC(=O)c3ccncc3)cc2)c1	i	0.95	·	·	105.8	4.1	·
CCOC(=O)N1CCN(C(=O)CSCc2ccccc2)CC1	i	0.97	-24.1	64.3	92.2	-7.8	-0.6
CCOC(=O)c1cnn(CCOC(=O)c2ccccc2)c1NC(=O)c1ccccc1	i	0.91	-87.5	135.8	109.9	-11.9	-0.8
O=C(CSCCOc1ccccc1)NCc1ccncc1	i	0.99	·	·	100.5	·	·
COc1cc(C(=O)NCC2CCCO2)ccc1OCc1c(C)noc1C (stereo not drawn)	i	0.89	-7.7	52.8	29.9	-11.2	-1.2
O=C(NCCN1CCOCC1)c1ccc(=O)n(Cc2ccc(Cl)cc2)c1	i	0.91	·	·	104.9	-3.2	·
O=C(CSc1ncn(-c2ccccc2)n1)Nc1nc(-c2ccccc2)cs1	i	0.88	-10.5	288.7	106.3	-5.3	-0.6

Sorted by number of heavy atoms (rising): part of the list above
SMILES	HSV replic up	HSV replic up primary fold	Insulin prom inh	Insulin prom inh cell count	RGS16-Gao HTS	PKD1 kinase inh	GALR2 ag
Cc1nn(C/C(C#N)=N\O)c(C)[n+]1N	i	1.06	9.1	90.4	99.5	0.6	-0.7
Cc1ccc(NC(=O)CC(=O)Nc2ccc(C)cc2)cc1	i	0.93	-23.1	158.8	105.9	-5.6	·
CCOc1ccccc1C1C(C(=O)OC)=CN(C)C=C1C(=O)OC	i	1.08	·	·	88.5	-5.4	10.7*
COc1cc(C(=O)NCC2CCCO2)ccc1OCc1c(C)noc1C (stereo not drawn)	i	0.89	-7.7	52.8	29.9	-11.2	-1.2
O=C(CSc1ncn(-c2ccccc2)n1)Nc1nc(-c2ccccc2)cs1	i	0.88	-10.5	288.7	106.3	-5.3	-0.6
CCOc1ccc(-c2nnn(CC(=O)c3ccc4c(c3)OCCO4)n2)cc1OCC	i	1.02	·	·	104.8	4.1	-2.5
O=C(CSc1nnc(Cc2ccccc2)n1Cc1ccco1)NC12CC3CC(CC(C3)C1)C2	i	0.95	13.6	190.3	101.1	0.1	-1.0

The listing continues.
SMILES	HSV replic up	HSV replic up primary fold	Insulin prom inh	Insulin prom inh cell count	RGS16-Gao HTS	PKD1 kinase inh	GALR2 ag
Cc1ccc(NC(=O)CSc2n[nH]c(C)c2[N+](=O)[O-])cc1	i	1.01	-27.8	155.7	112.5	20.4	-0.4
Cc1ccc(-n2nnnc2SCC(=O)NNC(=O)c2ccco2)c(C)c1	i	0.85	-3.6	64.2	96.1	-9.8	-1.8
CCOC(=O)N1CCN(CC(=O)N2CCC(C(N)=O)CC2)CC1	i	0.95	·	·	93.6	5.2	·
CC1(N2CCOCC2)CC2(O)C(=[N+]1[O-])CCc1nonc12 (stereo not drawn)	i	1	·	·	100.9	5.7	-1.1
COC(=O)CSc1nnc(-c2ccccc2OC)o1	i	1.09	-90.3	108.8	103.5	0.0	-2.5
Cc1ccc(C)c(-n2nnnc2Sc2nnnn2-c2ccccc2)c1	i	0.88	·	·	97.0	2.5	-0.6
CCOc1cc(NC(=O)C2CCCCC2)c(OCC)cc1NC(=O)c1ccccn1	i	0.88	-5.3	158.2	102.3	8.2	·
Fc1ccc(C2N(c3ccccc3)C(=S)N3CCCN23)cc1 (stereo not drawn)	i	1	·	·	107.5	·	·
CC(C)Cc1ccc(C(C)C(=O)OCC(=O)c2c[nH]c3ccccc23)cc1 (stereo not drawn)	i	0.73	14.8	86.0	101.8	-6.8	0.0
O=C(Nc1cc(Sc2ccccn2)cc([N+](=O)[O-])c1)c1ccc(Cl)cc1	i	0.95	-8.1	100.0	95.7	-5.8	-1.9
Cc1ccc(NC(=O)c2ccccc2-c2ccccc2C(=O)O)cc1C	i	1.03	·	·	100.9	3.9	·
Cn1c(=O)c2c([nH]c(=O)n2C)n(C)c1=O	i	1.03	-174.3	32.5	119.5	-1.5	-0.5
Cc1cc(S(=O)(=O)N2CCN(c3c(C)cccc3C)CC2)ccc1F	i	1.43	16.2	101.4	103.6	1.1	-2.5
CCOC(=O)c1sc(-c2ccccc2)cc1NC(=O)Nc1ccc([N+](=O)[O-])cc1	i	1.06	14.3	68.6	100.0	6.7	-0.1
C/C(=N\Nc1cccc2cccnc12)c1ccc(C)cc1	i	1.04	·	·	96.5	-7.4	·
O=C(NCCOc1ccccc1)c1cc2ccccc2o1	i	0.93	40.0	106.1	90.3	-4.3	-2.7
CC1CCCC(C)N1C(=O)Cn1cc(/C=C2/C(=O)Nc3ccccc32)c2ccccc21 (stereo not drawn)	i	1.03	10.7	49.7	107.0	51.5*	-3.2
C=CCSc1nc(C)c(CC(=O)OCC(C)C)c(=O)[nH]1	i	0.88	-15.8	52.0	105.9	-11.1	-1.1
COc1ccccc1OCC(=O)Nc1ccc(S(=O)(=O)N2CCCCCC2)cc1	i	0.87	·	·	95.0	-1.7	-1.8
COc1ccc(OCCCn2cc(/C=C3/C(=N)N4C=C(C)SC4=NC3=O)c3ccccc32)cc1	i	0.88	-17.2	127.8	114.0	-0.8	-0.7
CCO/N=C(\C)c1c(O)cc(C(C)C)n(-c2ccccc2)c1=O	i	0.98	2.8	152.4	103.0	-0.9	-0.1
COc1ccc(OC)c(NC(=O)Cc2coc3ccc(C)cc23)c1	i	0.88	-33.3	114.9	98.3	-16.1	0.1
COc1ccc(C(=S)N(C)C)cc1OC	i	0.93	-7.7	101.1	95.2	-14.2	-0.4
Cn1nc(C(=O)Nc2nc3ccccc3[nH]2)ccc1=O	i	1.11	36.4	96.3	104.0	-1.9	·
CCOC(=O)N1CCN(CC(=O)Nc2ccc(F)c(F)c2)CC1	i	1.03	·	·	102.1	0.2	·
COc1ccccc1OCCCOc1ccc([N+](=O)[O-])cc1Cl	i	0.89	·	·	104.3	4.8	-1.4
O=C(COc1ccccc1)n1nc(-c2ccc(Cl)cc2)nc1NCc1ccco1	i	0.97	-18.4	207.5	106.8	-6.9	-1.4
CCCN1C(=O)c2ccccc2NC1c1ccc(OC)c(CSc2ccccn2)c1 (stereo not drawn)	i	0.97	38.7	126.2	101.6	3.0	0.8
COc1ccc(S(=O)(=O)NCCc2csc(C)n2)cc1C	i	1.06	-7.1	86.7	107.5	-10.0	-2.4
O=C(NCCc1ccccc1)C1CCCN(S(=O)(=O)c2cccnc2)C1 (stereo not drawn)	i	1.02	·	·	105.3	10.2	-2.7

Hits appear at their usual frequency; overall some 1.2% were active at least once.
